Insulin prom inh: TRM-6 insulin promoter activity inhibition; AID 1273; inhibition, % at 2 µM; TRM-6 cells (human fetal islet line), insulin promoter-eGFP reporter, imaging; reporter expression induced with tamoxifen; 130,000 tested, 0.9% active;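 active = inhibition above the mean plus 3 SD, with well images judged a real hit on visual review, cut at about 60% in these data, passing the limit was not always enough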
GALR2 ag: GALR2 (human) receptor agonism | 140,000 tested, 0.48% active | activation, %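 (tested at 5 µM)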 | GALR2-expressing cells, agonist activation read-out;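 active = above mean plus 3 SD of all compounds, about 5% in these data, not always enough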;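 also: 0% = vehicle buffer wells and 100% = reference agonist at full effect; tested in CHO reporter cells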
Target sequence (O43603 whole entry, looked up): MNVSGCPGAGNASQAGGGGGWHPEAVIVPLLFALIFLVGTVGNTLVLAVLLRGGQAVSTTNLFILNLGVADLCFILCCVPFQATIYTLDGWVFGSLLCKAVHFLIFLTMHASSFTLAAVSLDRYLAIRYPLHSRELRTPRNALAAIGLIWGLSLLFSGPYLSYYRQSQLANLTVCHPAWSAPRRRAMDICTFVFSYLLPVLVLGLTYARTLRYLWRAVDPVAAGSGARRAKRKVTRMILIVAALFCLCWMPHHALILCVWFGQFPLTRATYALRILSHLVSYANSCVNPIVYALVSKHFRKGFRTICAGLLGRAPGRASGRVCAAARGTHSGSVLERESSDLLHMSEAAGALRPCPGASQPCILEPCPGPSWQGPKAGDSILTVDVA
PKD1 inh: PKD1 (human) kinase inhibition; Q15139; PKD1 kinase fluorescence polarization assay; inhibition, %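 (about 10 µM by stock and volumes)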; 200,000 tested, 0.056% active;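 active = inhibition of 50% or more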;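 also: controls were vehicle for no effect and a reference inhibitor for full effect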
HSV replic up: increases HSV replication in cells. HSV replication augmentation in cells, fold increase. maximum fold increase. 220,000 tested, 0.005% active. AID 1956;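 active = peak rise of 1.5-fold or more in the series; tested in PC3 cells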;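 also: first round at 10 µM; read as green reporter fluorescence; hits show the peak of a series up to 25 µM; 1 = signal of infected wells without compound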
RGS16-Gao HTS: modulates binding between human RGS16 and Galphao; binding response (% of control), % at 10 µM; 220,000 tested, 0.38% active; bead-based flow cytometry RGS16-Galphao binding, fluorescence; actives lie on both sides; O15492+P09471; AID 1441;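 active = below 25% or above 175%, edge rows of some plates excepted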;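 also: Galphao activated by GDP with aluminum fluoride before binding; 100% = wells without compound and 0% = beads without RGS; some results beyond the cut were filed as inactive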
Target sequence (O15492 whole entry, looked up): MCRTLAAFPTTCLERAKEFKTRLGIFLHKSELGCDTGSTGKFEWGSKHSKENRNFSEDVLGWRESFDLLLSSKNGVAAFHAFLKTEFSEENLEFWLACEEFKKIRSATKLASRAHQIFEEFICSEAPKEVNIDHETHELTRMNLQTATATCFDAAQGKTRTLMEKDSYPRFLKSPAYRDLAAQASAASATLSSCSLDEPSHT
Target sequence (P09471 whole entry, looked up): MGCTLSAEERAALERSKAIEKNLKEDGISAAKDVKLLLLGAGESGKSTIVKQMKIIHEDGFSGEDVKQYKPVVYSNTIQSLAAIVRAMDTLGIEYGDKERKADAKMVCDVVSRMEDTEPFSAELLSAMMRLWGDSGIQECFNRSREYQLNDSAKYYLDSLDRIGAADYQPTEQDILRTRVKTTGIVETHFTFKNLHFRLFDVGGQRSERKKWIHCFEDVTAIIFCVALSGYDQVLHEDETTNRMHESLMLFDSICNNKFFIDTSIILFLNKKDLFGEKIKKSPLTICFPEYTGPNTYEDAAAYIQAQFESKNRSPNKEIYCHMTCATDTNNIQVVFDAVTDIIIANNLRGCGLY
Insulin prom inh cell count: also measured in Insulin prom inh; calls as there; normalized cell count, %; measured here: cell count, toxicity; reference of the scale not given here;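 cells exposed to compound for 48 h; stained nuclei by imaging scaled within each plate; lower means fewer cells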
HSV replic up primary fold: also measured in HSV replic up; calls as there; fold increase; compound at 10 µM; measured here: primary screen fold increase 10 uM; tested in PC3 cells;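 GFP signal in the first replicate; 1 = infected wells without compound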
Active calls of the source: *; i = inactive; nt = no result given.

SMILES | Insulin prom inh | Insulin prom inh cell count | GALR2 ag | PKD1 inh | HSV replic up | HSV replic up primary fold | RGS16-Gao HTS
CCC(=O)c1ccc(OCCn2cncn2)cc1 | -242 | 98 | -1.7 | 4 | i | 0.92 | 99
COC(=O)c1c(NC(=O)c2ccc(Br)o2)sc(C)c1C | 57 | 58 | -1.5 | -17 | i | 0.87 | 108
COc1ccc(CNCCNC(=O)c2ccco2)c(OC)c1OC | -39 | 135 | -1.2 | 6 | i | 1 | 122
CC(C)CC(=O)Nc1ccc2oc(-c3cccnc3)nc2c1 | 9 | 131 | -2.2 | 0 | i | 0.85 | 108
C[C@@H]1CC=C[C@H]2[C@H]1C(=O)N(Cc1ccccc1)[C@H]2c1ccc(-c2ccc(F)cc2)cc1F | nt | nt | nt | nt | i | 0.92 | 96
O=C(Nc1ccc(CN2CCS(=O)(=O)CC2)cc1)c1ccc(Cl)cc1 | nt | nt | nt | nt | i | 1.1 | 89
Cc1c(NC(=O)c2ccccc2NS(=O)(=O)c2ccc(F)cc2)c(=O)n(-c2ccccc2)n1C | 27 | 102 | -2.2 | 6 | nt | nt | 105
O=C(c1ccccc1)N(Cc1ccco1)C1CCS(=O)(=O)C1 (centres undefined) | -34 | 196 | -2.1 | -3 | i | 0.95 | 98
Cc1cc(C)cc(NS(=O)(=O)c2ccc(NC(=S)NC(=O)c3ccc(Br)o3)cc2)c1 | 23 | 94 | -2.6 | -11 | i | 0.92 | 102
CCOc1ccc(-n2cnc3sc4c(c3c2=O)CCCC4)cc1 | nt | nt | nt | nt | i | 1.1 | 105
COc1ccc(S(=O)(=O)NCC2CCCN(C(=O)C3CCCC3)C2)cc1 (centres undefined) | nt | nt | nt | -11 | i | 0.96 | 119
Cc1ccc(S(=O)(=O)N(C)C)cc1NC(=O)COC(=O)c1sc2cc(Cl)ccc2c1Cl | nt | nt | nt | nt | i | 0.75 | 110
CCCOc1ccc(/C(CC)=N/NC(=O)C2(C)CC2(Br)Br)cc1 (centres undefined) | 3 | 59 | -0.5 | -7 | i | 0.99 | 103
COc1cc(C(=O)Nc2cccc(-c3nc4cc(C)ccc4o3)c2)cc(OC)c1OC | 71* | 117* | -1.7 | -9 | i | 0.94 | 108
Cc1ccc(OCC(=O)NNC(=O)Cn2nnc(-c3ccccc3)n2)cc1 | nt | nt | nt | -2 | i | 0.85 | 102
CN(C)CCN1CC(O)=C(c2nc3ccccc3s2)C1=N | nt | nt | nt | nt | i | 1.1 | 103
Cc1cc(NC(=O)C2CCCO2)ccc1Br (centres undefined) | nt | nt | nt | 6 | i | 0.95 | 94
CCc1ccc(OCC(=O)N/N=C2\CC(=O)c3ccccc32)cc1 | 34 | 90 | -1.0 | 1 | i | 1.1 | 95
CCOc1ccccc1CNC(=O)c1cc2occc2n1C | 20 | 67 | -2.5 | 7 | i | 0.95 | 88
COc1ccc(NC(=O)C(C)N(c2ccc(C)cc2)S(C)(=O)=O)c(OC)c1 (centres undefined) | -113 | 56 | -0.7 | -14 | i | 0.91 | 95
CN(Cc1nc2c(s1)CCCC2)C(=O)CCc1nnc(-c2ccc3c(c2)OCO3)o1 | nt | nt | nt | nt | i | 0.89 | 81
CC1CCC(NC(=O)Nc2cccs2)CC1 (centres undefined) | nt | nt | -2.4 | -4 | i | 1.1 | 96
CCCCOc1ccc(NC(=O)c2cc(F)c(F)cc2Cl)cc1 | 38 | 146 | -1.2 | 2 | i | 0.99 | 93
Cc1cc(NC(=O)COc2ccccc2)n(-c2ccccc2)n1 | 29 | 112 | -1.7 | 1 | i | 0.87 | 101
Cc1nc2ccccc2c(=O)n1NCc1cc(Br)cs1 | -50 | 88 | -1.4 | -10 | i | 0.98 | 95
CCc1nnc(NC(=O)COc2ccc(N(C)S(=O)(=O)c3ccc(C)cc3)cc2)s1 | nt | nt | nt | -2 | i | 0.87 | 98
COc1ccc(C)cc1-n1nnnc1SCC(=O)Nc1cc(C)on1 | 28 | 92 | -1.9 | -2 | i | 0.98 | 103
CCc1ccc(C(=O)COC(=O)CCc2nc3ccccc3c(=O)[nH]2)cc1 | 0 | 120 | -1.2 | -10 | i | 0.97 | 105
Cc1nccn1CC(=O)N/N=C/c1cccc(O)c1 | 3 | 112 | 0.1 | -4 | i | 1.1 | 88
Cc1c(C(=O)NCCSCc2ccc(Cl)cc2Cl)cccc1[N+](=O)[O-] | -33 | 78 | -3.3 | -4 | nt | nt | 109
Cc1ccccc1/C=C/c1nc2ccccc2c(=O)[nH]1 | nt | nt | nt | nt | i | 0.74 | 14*
COc1ccc(-n2cnc3sc4c(c3c2=O)CCCC4)cc1 | nt | nt | nt | -3 | i | 0.95 | 106
O=C1NC(c2ccccc2Cl)=N/C1=C/c1ccco1 | nt | nt | nt | nt | i | 1 | 104
CCC(CC)c1nnc(NC(=O)C2CCCO2)s1 (centres undefined) | nt | nt | nt | -2 | i | 1 | 96
CN(C)S(=O)(=O)c1cccc(C(=O)Nc2ccc(Cl)cn2)c1 | 38 | 112 | -0.9 | -14 | i | 0.85 | 97
O=C(NNc1ccccn1)c1ccccc1CC[N+](=O)[O-] | 9 | 150 | nt | 2 | i | 0.93 | 86
CCCC(=O)NCc1ccc2c(c1)cc(C)n2C | nt | nt | -0.4 | 18 | i | 0.72 | 116
CO/N=C(/CS(=O)(=O)Cc1ccccc1Cl)c1ccc(Cl)cc1Cl | 16 | 93 | -2.8 | 6 | i | 1.1 | 94
CCN(Cc1ccccc1)S(=O)(=O)c1ccc2oc(C(=O)O)c(C)c2c1 | 44 | 101 | -0.3 | -3 | i | 1.1 | 101
Cc1cc(C)cc(NC(=S)N(CCN(C)C)C(C)c2cccnc2)c1 (centres undefined) | 8 | 126 | nt | 2 | i | 0.91 | 103
COc1ccc(CCNC(=O)COC(=O)Cn2cnc3ccccc3c2=O)cc1 | nt | nt | nt | nt | i | 1 | 96
O=S(=O)(NC1c2cccc3cccc(c23)C1Sc1ncccn1)c1ccccc1 (centres undefined) | 3 | 175 | 1.2 | 6 | i | 0.93 | 101
O=C(NC1CCCCC1)c1ccccc1NC(=O)C1CC1 | -83 | 26 | -2.8 | 1 | i | 0.7 | 95
COc1ccc(-c2nnc3sc(CCN4C(=O)c5ccccc5C4=O)nn23)cc1 | nt | nt | -1.4 | -5 | i | 0.95 | 106
COc1ccc2c(N)c(C(=O)NN)[nH]c2c1 | nt | nt | nt | nt | i | 1.1 | 103
CC(C(=O)NCC1CCCO1)n1cc([N+](=O)[O-])cn1 (centres undefined) | 12 | 113 | nt | -8 | i | 0.88 | 103
Cc1ccc(S(=O)(=O)Cc2ccc(C(=O)N3CCc4ccccc4C3)o2)cc1 | nt | nt | -0.6 | -3 | i | 0.94 | 102
COc1ccc(-n2cnc3cc(NC(=O)c4ccco4)ccc32)cc1 | -17 | 77 | -4.4 | -5 | i | 0.99 | 102
O=C(Nc1nnc(-c2ccco2)o1)c1ccc(S(=O)(=O)N2CCCC2)cc1 | -36 | 130 | nt | 5 | i | 0.98 | 99
COc1ccc(-n2c3c(cc(C(=O)Nc4cccc(C)n4)c2=O)C(=O)CC(C)(C)C3)cc1 | -27 | 103 | nt | 2 | i | 0.81 | 103
C/C(CC(O)(/C=N/O)c1ccccc1)=N\O (centres undefined) | 3 | 149 | -1.9 | -20 | i | 1.1 | 96
O=C(COC(=O)c1ccco1)NCc1ccc(F)cc1 | nt | nt | nt | -3 | i | 0.87 | 96
CCOC(=O)C(C#N)c1ccccn1 (centres undefined) | -36 | 109 | -0.3 | -2 | i | 1 | 101
COc1cc(C)c(N(C(C)=O)c2ccccc2)c(C)c1 | -38 | 114 | -1.8 | -16 | i | 0.99 | 104
Cc1nc(-c2ccccc2)sc1-c1n[nH]c(=S)n1C | 23 | 100 | -1.9 | -6 | i | 0.78 | 39
Cc1ccccc1CN1CCSc2sccc2C1=O | nt | nt | nt | -8 | i | 0.99 | 96
COc1ccc(N(C(=O)Cn2nnc(-c3ccccc3F)n2)C(C(=O)NCC2CCCO2)c2ccc(Cl)cc2)cc1 (centres undefined) | nt | nt | nt | -7 | i | 0.86 | 101
Brc1ccc(-c2nnc(-c3cccnc3)c3conc23)cc1 | -344 | 73 | -1.3 | 2 | i | 0.91 | nt
CCOC(=O)/C(C#N)=C/c1ccc(N2CCCCC2)cc1 | nt | nt | nt | -4 | i | 1.1 | 102
CC1=NNC(=O)C1CCC(=O)N/N=C(\C)c1ccccc1 (centres undefined) | nt | nt | nt | -5 | i | 0.98 | 108

Ordered by SMILES length (ascending): some entries from above.
SMILES | Insulin prom inh | Insulin prom inh cell count | GALR2 ag | PKD1 inh | HSV replic up | HSV replic up primary fold | RGS16-Gao HTS
O=C(COC(=O)c1ccco1)NCc1ccc(F)cc1 | nt | nt | nt | -3 | i | 0.87 | 96
CCOC(=O)/C(C#N)=C/c1ccc(N2CCCCC2)cc1 | nt | nt | nt | -4 | i | 1.1 | 102
Brc1ccc(-c2nnc(-c3cccnc3)c3conc23)cc1 | -344 | 73 | -1.3 | 2 | i | 0.91 | nt
COc1ccc(-n2cnc3cc(NC(=O)c4ccco4)ccc32)cc1 | -17 | 77 | -4.4 | -5 | i | 0.99 | 102
O=C(Nc1nnc(-c2ccco2)o1)c1ccc(S(=O)(=O)N2CCCC2)cc1 | -36 | 130 | nt | 5 | i | 0.98 | 99
COc1ccc(N(C(=O)Cn2nnc(-c3ccccc3F)n2)C(C(=O)NCC2CCCO2)c2ccc(Cl)cc2)cc1 (centres undefined) | nt | nt | nt | -7 | i | 0.86 | 101

More results
SMILES | Insulin prom inh | Insulin prom inh cell count | GALR2 ag | PKD1 inh | HSV replic up | HSV replic up primary fold | RGS16-Gao HTS
N#Cc1ccc(N2CCOCC2)c([N+](=O)[O-])c1 | nt | nt | nt | 3 | i | 0.96 | 119
O=C(Nc1nnc(C2CC2)o1)c1ccc(S(=O)(=O)N2CCCc3ccccc32)cc1 | nt | nt | nt | -13 | nt | nt | 109
COc1cc(C)c(S(=O)(=O)N2CCOCC2)c(C)c1C | nt | nt | nt | 0 | i | 1 | 108
Cc1ccc2[nH]c(=O)c(CN3CCCCC3)c(-c3ccccc3)c2c1 | nt | nt | nt | 2 | i | 1 | 103
Cn1ccc(NC(=O)Nc2ccc(Cl)cc2)n1 | nt | nt | nt | nt | i | 0.92 | 99
Nc1nc(-c2ccc(Cl)cc2)cc(C(F)(F)F)n1 | 0 | 170 | -1.3 | -1 | i | 1.2 | 280
Nc1cccc(Oc2ccc3c(c2)C(=O)N(CC2CCCO2)C3=O)c1 (centres undefined) | nt | nt | nt | nt | i | 0.96 | 89
C=C(C)C(=O)Nc1cccc(C2=NOC3(C2)C[C@@H](C(N)=O)N(C(=O)CCCCC)C3)c1 (some centres undefined) | nt | nt | nt | nt | i | 0.95 | 103
COc1ccc(CN=C(C)c2c(C(F)(F)F)[nH]n(-c3nc4ccccc4s3)c2=O)cc1 | 23 | 147 | -2.4 | 4 | i | 0.84 | 97
Cc1ccsc1C(=O)N1CCCC(CCC(=O)N2CCN(c3ccccn3)CC2)C1 (centres undefined) | nt | nt | nt | -7 | i | 0.97 | 102
CCCCOC(=O)c1ccc(NC(=O)CSCc2n[nH]c(=O)[nH]2)cc1 | 14 | 100 | -2.2 | 9 | i | 0.82 | 104
Cc1nn(CC(=O)NCCc2ccccc2)c(=O)c2ccccc12 | nt | nt | -0.4 | 4 | i | 1.1 | 98
OCCN(CC(O)COc1ccccc1)CC(O)Cn1ccc2ccccc21 (centres undefined) | nt | nt | -1.6 | 4 | i | 1.1 | 99
CCOc1cc(C(=O)OC(C)C(=O)Nc2ncc(Cl)cc2Cl)ccc1OCC(=O)N1CCOCC1 (centres undefined) | 30 | 122 | -1.3 | -17 | i | 1 | 19
CCCCC(=O)NCCc1ccc(S(N)(=O)=O)cc1 | 0 | 105 | -0.2 | -11 | i | 0.84 | 101
CCCCCn1c(Sc2ccccc2)nc2c1c(=O)[nH]c(=O)n2C | nt | nt | -0.8 | 4 | i | 1 | 100
Cc1ccc(-n2c(=S)[nH]c3c(oc4ccccc43)c2=O)cc1 | nt | nt | 0.1 | -8 | i | 1.1 | 108
C/C(=N\NC(=O)C(N)=O)c1ccc(Br)cc1 | -14 | 98 | -1.9 | -12 | i | 0.98 | 112
Cc1ccc(CNCC(O)(c2ccc(F)cc2)c2ccc(F)cc2)cc1 | nt | nt | -1.5 | -2 | i | 0.9 | 103
Cc1ccc(NC(=O)C2CC(=O)Nc3ncnn32)c(C)c1 (centres undefined) | nt | nt | nt | nt | i | 0.96 | 100
COc1ccc(C(CC(=O)Nc2ccccc2OC)n2cccc2)cc1 (centres undefined) | nt | nt | -2.1 | -19 | i | 0.89 | 15*
CC1(C)C2CCC1(CS(=O)(=O)Nc1cccc(S(N)(=O)=O)c1)C(=O)C2 (centres undefined) | nt | nt | nt | nt | i | 0.98 | 105
